# SARS PLP yeast: inhibitors of SARS-CoV papain-like protease in yeast | AID 485353 | Potency, µM (titrated, usually from 32.9 µM), for inactives: top-dose activity, positive = growth rescue | actives 0.19% (n = 330,000) | S. cerevisiae expressing SARS-CoV PLpro, growth rescue; control for the full effect not named in the record; active means well fitted rising curve with a large enough effect; inconclusive means small, poorly fitted or top-dose-only effect; inactive means no such curve, though single readings can be large or run the other way; note: 0% is about no effect; nearly all actives have a fitted effect of over 55% in size; growth read by luminescence after 48 h
# RE007 growth inh: less growth of the S. pombe RE007 Vpr strain | actives 0.21% (n = 360,000) | Potency, µM (series often up to 92.2 µM), for inactives: top-dose activity change, negative = less growth | S. pombe RE007 Vpr strain, BacTiter-Glo ATP luminescence, 24 h; control for the full effect not named in the record; active = well fitted falling curve with a large enough effect; inconclusive = small, poorly fitted or top-dose-only effect; inactive = no such curve, though single readings can be large or run the other way;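 note: % is set by controls: 0 for no effect and ±100 for the full control effect; nearly all actives have a fitted effect of over 50% in size; the assay follows cell death caused by Vpr and the record does not say whether a fall means rescue or toxicity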
#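 Fission yeast strain RE007, carrying one chromosomally integrated HIV-1 vpr copy, was seeded at OD 0.01 in PMG+AL medium with 23 nL pinned compound. After 24 h at 30 °C and 99% humidity, viability was read by BacTiter-Glo luminescence.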
# StopGo reporter: FMDV 2A StopGo reporter, luciferase signal; Potency, µM (doses to about 57.9 µM), without a hit: top-dose signal change, negative = less light; AID 1159524; human cells with a luciferase reporter of 2A StopGo recoding; control for the full effect not named in the record; actives 1.2% (n = 410,000); active = well fitted falling curve with a large enough effect; inconclusive = small, poorly fitted or top-dose-only effect; inactive = no such curve, though single readings can be large or run the other way; tested in HEK293T cells; note: % is set by controls: 0 for no effect and ±100 for the full control effect; nearly all actives have a fitted effect of over 45% in size; luciferase light after 4 h
# * = called active by the depositor; ? = inconclusive; [ ] = remark or other dose. Potency is the fitted concentration of half-maximal effect.
# The first six compounds (preview)
SMILES,SARS PLP yeast,RE007 growth inh,StopGo reporter
Cc1nc2cc(NC(=O)c3ccc(N4C(=O)CCC4=O)cc3)ccc2s1,-10%,14%,-19%
O=C(Cn1ccc(NC(=O)OCc2ccccc2)nc1=O)NCCN1CCOCC1,4%,0%,-10%
CN(c1ccccc1)S(=O)(=O)c1cc(C(=O)OCC(N)=O)ccc1Cl,-7%,5%,28%
COc1ccc(NC(C)=O)cc1S(=O)(=O)N1CCN(C/C=C/c2ccccc2)CC1,-2%,-10%,-12%
COCCN(C(=S)Nc1ccc(C)cc1C)C(C)c1cccs1 (stereo not given),4%,5%,26%
Cc1ccc(S(=O)(=O)N2CCOCC2)cc1C(=O)NC1=NCCS1,-1%,2%,-6%

# This part in full, previewed entries included:
SMILES,SARS PLP yeast,RE007 growth inh,StopGo reporter
Cc1nc2cc(NC(=O)c3ccc(N4C(=O)CCC4=O)cc3)ccc2s1,-10%,14%,-19%
O=C(Cn1ccc(NC(=O)OCc2ccccc2)nc1=O)NCCN1CCOCC1,4%,0%,-10%
CN(c1ccccc1)S(=O)(=O)c1cc(C(=O)OCC(N)=O)ccc1Cl,-7%,5%,28%
COc1ccc(NC(C)=O)cc1S(=O)(=O)N1CCN(C/C=C/c2ccccc2)CC1,-2%,-10%,-12%
COCCN(C(=S)Nc1ccc(C)cc1C)C(C)c1cccs1 (stereo not given),4%,5%,26%
Cc1ccc(S(=O)(=O)N2CCOCC2)cc1C(=O)NC1=NCCS1,-1%,2%,-6%
COC(=O)[C@]1(Cc2ccccc2)N[C@H](CN(C)S(=O)(=O)c2ccc(C(C)(C)C)cc2)[C@@H]2C(=O)N(C)C(=O)[C@@H]21,-2%,8%,?
CC[C@H](C)/C=C(C)/C=C/C1=CC2=C(Cl)C(=O)[C@](C)(OC(C)=O)C(=O)C2=CO1,-1%,?,-22%
O=C(COc1ccccc1C(=O)O)Nc1cccc2ccccc12,0%,3%,-18%
Cc1cccnc1NC(=O)c1ccc(OCC2CCCO2)cc1 (stereo not given),-3%,7%,33%[activator]
O=C(CCN=C1NS(=O)(=O)c2ccccc21)Nc1ccc(Cl)cc1F,1%,-23%,2%
C=CCN1C(=O)C(=O)N(CC(=O)NCC(=O)Nc2ccc(F)c(F)c2F)C1=O,-4%,22%,-3%
CNC(=O)Cn1nc(C)c(S(=O)(=O)N2CCOCC2)c1C,2%,-21%,-12%
CCOC(=O)C1=C(COC(=O)CCOc2ccc(OC)cc2)NC(=O)NC1C (stereo not given),-3%,2%,2%
S=C(NCc1ccccc1)N1CCN(C(=S)NCc2ccccc2)CC1,9%,26%,-7%
O=C(Nc1ccc(Cl)c(S(=O)(=O)N2CCCCC2)c1)c1cnccn1,-11%,-5%,-20%
COc1ccccc1-c1oc2ccccc2c1-c1ccccc1OC,-6%,0%,-24%
Cc1nnc(SCC2=C(C(=O)O)N3C(=O)C(NC(=O)Cc4ccccc4)C3SC2)s1 (stereo not given),-3%,-3%,6%
CC(=O)c1ccc(S(=O)(=O)NCCC(=O)N2CCN(c3ccccn3)CC2)cc1,-5%,1%,2%
S=c1[nH]nc(-c2ccc(Cl)cc2)n1CCCN1CCOCC1,-2%,17%,-11%
Cc1cc(C)cc(C(=O)NCC(=O)OCc2nc(N)nc(Nc3ccccc3C)n2)c1,13%,1%,-2%
O=C(CCc1ccccc1)N[C@@H]1c2ccccc2CC[C@H]1OCc1ccccc1,-17%,29%,-4%
CC(OC(=O)c1cnccn1)C(=O)Nc1nc(-c2cccc([N+](=O)[O-])c2)cs1 (stereo not given),0%,8%,33%[activator]
CN(C(=O)CN1C(=O)NC2(CCCc3ccccc32)C1=O)C1CCCCC1 (stereo not given),-1%,-14%,-8%
C=CCN1C(=O)/C(=C2/Sc3ccc(OC)cc3N2C)SC1=NCc1ccccc1,0%,1%,6%
O=C(NNC(=O)c1ccccc1-n1cccc1)c1cncc(Br)c1,0%,30%,-9%
Cc1noc(C)c1COc1ccc(C(=O)Nc2nnc(CC(C)C)s2)cc1,-8%,3%,?
CCN(C(=O)COC(=O)CNC(=O)c1ccc2ccccc2c1)C1CCS(=O)(=O)C1 (stereo not given),-1%,-17%,-4%
CCOC(=O)C1CCN(C(=O)COC(=O)CNC(=O)c2sc3ccccc3c2Cl)CC1,-4%,-5%,-19%
C[C@H](CO)N1C[C@H](C)[C@@H](CN(C)Cc2ccc(Cl)c(Cl)c2)Oc2c(NC(=O)Cc3ccccc3)cccc2C1=O,2%,3%,2%
COc1ccc(C(=O)c2c3ccc([N+](=O)[O-])cc3[n+]([O-])n2CCCC(N)=O)cc1,4%,0%,-5%
Cc1ccc(C(C)C)c(OCC(=O)NN=C2CCCC2)c1,-1%,4%,5%
C=CCn1c(SCC(=O)N(CC)C2CCS(=O)(=O)C2)nnc1-c1ccccc1 (stereo not given),-3%,2%,0%
CCC[C@@H](CN1CCC[C@H]1CN1C(N)=NC[C@H]1CC(C)C)N1C[C@@H]([C@H](C)CC)N(CCCC2CCCC2)C1=N,1%,35%,-20%
CC(C)N(C(=O)[C@H]1CC(CC(=O)NCc2cccc(C(F)(F)F)c2)C(=O)N2CCc3c([nH]c4ccccc34)[C@]12C)C(C)C (stereo not given in full),-1%,6%,?
NC(=O)c1ccsc1NC(=O)c1ccc([N+](=O)[O-])o1,-1%,8%,-3%
CCN(CC)S(=O)(=O)c1cccc(NC(=O)c2ccc(Sc3nncn3C)c([N+](=O)[O-])c2)c1,1%,0%,-2%
COc1ccc(/C=C/C(=O)OCC(=O)N2CCc3ccccc32)cc1,-13%,2%,-19%
O=C(Nc1cccc(S(=O)(=O)NC2=NCCC2)c1)c1ccc(F)cc1,-3%,-19%,-16%
COc1ccc(-n2c(=O)c3c4c(sc3n(CC(=O)Nc3cc(C)[nH]n3)c2=O)CCC4)c(OC)c1,-5%,-4%,-8%
O=C1C2C3C=CC(C3)C2C(=O)N1c1ccc(N2CCN(c3ccccn3)CC2)c([N+](=O)[O-])c1 (stereo not given),-1%,-2%,?
c1ccc(C[C@H]2CNCCN2CCc2cccc3ccccc23)cc1,-6%,-10%,-22%
CCC(C)NC(=O)Cn1c(-c2ccccc2)cc(C(C)=O)c1C (stereo not given),-1%,-12%,5%
Cc1ccc(S(=O)(=O)N(C)C)cc1NC(=O)C(C)[N+]12CCN(CC1)CC2 (stereo not given),-1%,-7%,-17%
O=C1NCCOC(=O)[C@@H](Cc2ccc(F)cc2)C/C=C\C[C@@H]1CC(=O)N(CCO)Cc1ccccc1,1%,-8%,?
CC(NC(=O)Cc1ccccc1)C(=O)O (stereo not given),3%,-10%,-19%
COC(=O)C1=C(c2ccccc2OCc2ccccc2)C[C@@H]2CC[C@H]1N2C(=O)NCc1ccc(OC)c(OC)c1,2%,13%,0%
O=S(=O)(c1ccc(Br)cc1)N1CCN=C1SCc1cccnc1,-2%,7%,-9%
Cc1cccc(C)c1N(CC(=O)NCc1ccc(F)cc1)C(=O)c1csnn1,1%,9%,-2%
Cc1cccc(NC(=O)c2cc3c(=O)n4ccccc4nc3n(CC(C)C)c2=N)c1,1%,1%,-11%
COc1ccc(CN2CC[C@H]3C=CCc4cccc(c43)C2)cc1,-5%,-11%,-13%
CC(=O)c1sc(NC(=O)c2cc(=O)c3ccccc3o2)nc1C,0%,13%,51%[activator]
CCCNC(=O)C(Cc1ccc(F)cc1)NC(=O)c1ccccc1 (stereo not given),-1%,9%,-4%
O=C(c1ccc(F)cc1)N1CCCC(c2nc(-c3ccncc3)no2)C1 (stereo not given),0%,3%,?
CCOC(=O)[C@H]1[C@H]2COc3ccccc3[C@@H]2N2C(=O)[C@@H](CO)NC(=O)[C@@]12C,-4%,-4%,-8%
COc1ccc(NC(=O)NC[C@@H]2CC[C@@H](Cc3ccc(-c4ccccc4)cc3)O2)cc1,-9%,0%,-20%
COCCCNC(=O)CC1C[C@H](C(=O)N2CCOCC2)[C@@]2(C)c3[nH]c4ccccc4c3CCN2C1=O (stereo not given in full),4%,-5%,-12%
Cc1csc(=Nc2c(C)n(C)n(-c3ccccc3)c2=O)n1-c1ccccc1,3%,0%,-1%
O=C(COC(=O)C1CC1)NCc1ccc(Cl)cc1Cl,3%,11%,28%
O=C(CN1CCN(c2cccc(C(F)(F)F)c2)CC1)N(C1CC1)C1CCS(=O)(=O)C1 (stereo not given),6%,-13%,-22%

# Later entries:
SMILES,SARS PLP yeast,RE007 growth inh,StopGo reporter
COC(=O)C1=C(c2ccc(OC(F)(F)F)cc2)C[C@@H]2CC[C@H]1N2C(=O)NCC1CC1,1%,-2%,-12%
CC(C)NC(=O)N(C)C[C@H]1Oc2c(NC(=O)C3CC3)cccc2C(=O)N([C@H](C)CO)C[C@@H]1C,-4%,2%,39%[activator]
O=C(NC1CCN(Cc2ccccc2)C1)c1cc(S(=O)(=O)N2CCOCC2)ccc1Cl (stereo not given),0%,-7%,-13%
Cc1cc(NC(=O)CSc2nc3ccccc3n2CC(C)C)no1,-1%,11%,5%
CCCN(CCC)C(=O)CC(c1ccccc1)C1CCOC(C)(C)C1 (stereo not given),-1%,-11%,-4%
CCCCCCCNC(=O)C1(CC2CC(c3cccc(Br)c3)=NO2)CCN(C(=O)c2ccccc2)CC1 (stereo not given),2%,5%,1%
CCc1nnc(NS(=O)(=O)c2ccc(NC(=O)c3ccco3)cc2)s1,-1%,2%,-4%
O=C(CCNC(=O)c1ccco1)NCCN1C(=O)S/C(=C\c2ccc(F)cc2)C1=O,9%,23%,36%[activator]
C#CCOCCOCCOCCNc1nc(N2CCN(C(=O)CCCCCCCCCCNC(=O)[C@H](CCCCN)n3cc(C)nn3)CC2)nc(N2CCN(C(=O)CCCCCCCCCCNC(=O)[C@@H]([C@H](C)O)n3cc(C)nn3)CC2)n1,8%,8%,-13%
COC(=O)[C@@]1(C)[C@H]2C(=O)N(Cc3ccccc3)C(=O)[C@H]2[C@H]2CN=C(SCC(=O)c3ccccc3)N21,8%,-24%,-16%
COc1cccc(/C(C)=N/Nc2ccc(S(=O)(=O)N3CCCCC3)cn2)c1,-11%,-12%,-10%
O=C(CCNS(=O)(=O)c1ccccc1)NNC(=O)c1cccc(Cl)c1,0%,11%,-17%
CCN(Cc1ccncc1)C(=O)c1ccc2c(c1)S(=O)(=O)c1ccccc1C2=O,1%,4%,19%
CC(C)CC1Nc2ncnc(N3CCOCC3)c2N(Cc2ccc(Br)cc2)C1=O (stereo not given),2%,-5%,-15%
Cc1ccc(S(=O)(=O)N(C)CC(=O)NNC(=O)CCS(=O)(=O)c2ccccc2)cc1,2%,-1%,-5%
CC(=O)c1ccccc1NS(=O)(=O)c1ccc2c(c1)CC(=O)N2,0%,2%,-12%
CCC1(CC)NC(=O)N(CC(=O)OCC(=O)Nc2cc(OC)ccc2OC)C1=O,-8%,-2%,-13%
Cc1nnc(SCC(=O)N(CCC#N)c2ccc3c(c2)OCCO3)s1,1%,-10%,-18%
CC(C)=CCN1CC[C@@]2(C)c3cc(O)ccc3CC1C2C (stereo not given in full),-4%,-17%,-16%
CN(C)C(CNC(=O)CCOc1ccccc1)c1ccco1 (stereo not given),2%,2%,-3%
Cc1ccc([C@H]2C(C(=O)O)=CC[C@@H](c3ccc(Cl)cc3)N2S(=O)(=O)c2ccc(C)cc2)cc1,1%,-4%,-18%
CC(=O)c1ccc(N2CCN(CC(=O)Nc3ccccc3C(=O)NC3CC3)CC2)c(F)c1,1%,0%,?
CCN(C(=O)COC(=O)c1ccco1)c1cccc2ccccc12,-2%,3%,-10%
COc1cc2c(-c3cc(F)cc(F)c3)c(-c3ccsc3)oc(=O)c2cc1OC,-5%,11%,-17%
COC(=O)C1=C(C)N(Cc2ccccc2)C(=NCc2ccccc2)N[C@H]1c1cccc(C(F)(F)F)c1,-14%,22%,?
O=C(COc1ccc(/C=C\[N+](=O)[O-])cc1)N1CCOCC1,-1%,-7%,?
CC(C)=CC(=O)Nc1cccc(S(=O)(=O)NC2=NCCCCC2)c1,-5%,5%,10%
CCC(ONc1ccccc1C(F)(F)F)(C(=O)NN(C)C)c1ccccc1 (stereo not given),1%,?,-10%
CC(OC(=O)c1ccc(Cl)nc1)C(=O)NC1CCCC1 (stereo not given),1%,-1%,-13%
CC(NC(=O)c1ccco1)C(=O)N1CCN(c2cccc(C(F)(F)F)c2)CC1 (stereo not given),-3%,-14%,-12%

# Only part of the results is shown; the hit share may differ from the screen's.
